# eIF4H FP inh: human eIF4H binding inhibitors, primary screen, translation initiation inhibitor project, biochemical, uHTS, fluorescence polarization | Eukaryotic translation initiation factor 4H (Homo sapiens), Q15056 | eIF4H fluorescence polarization binding assay | inhibition, % at 35 µM | 290,000 tested, 0.94% active | AID 2012, 2009;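 active means 50% or more with normal probe brightness, or confirmed in later tests; inconclusive means above 50% with abnormal brightness, or retests that disagree; inactive means below 50% or failed in later tests; about a fifth of its hits are not listed in these tables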;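 further: calls also rest on retests at 20 µM and on dose response follow-up; 0% = protein and probe with vehicle and 100% = probe without protein; strong numbers were not always called active; many hits fall short of the cut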
# MT1-MMP act inh: blockers of MT1-MMP proenzyme processing, primary screen, HT1080 RFP-PRO-GFP cells, GFP/RFP fluorescence; Matrix metalloproteinase-14 (Homo sapiens), P50281; GFP/RFP ratio fluorescence, overnight; percent of plate control window, DMSO zero; GFP/RFP ratio change, % at 20 µM; 360,000 tested, 0.061% active; AID 651647, 2012;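 active means GFP/RFP ratio change of at least 30% with cell ATP level not reduced by more than half and red fluorescence within 50% of control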; further: strong numbers were not always called active
#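 Material: RFP-PRO-GFP reporter HT1080 cells. Dosing: single-point 20 µM compound, 1% DMSO. Controls: DMSO and RFP-L50D-GFP cell wells. Timing: cells overnight before dosing, compound overnight, 37 °C, 5% CO2. Measure: GFP/RFP fluorescence ratio.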
# UUG fidelity: modulators of yeast start codon fidelity, primary screen, whole organism, S. cerevisiae, single point, plate reader; S. cerevisiae UUG-firefly luciferase reporter, luminescence/redox ratio; AID 602363, 2012; 350,000 tested, 0.13% active; activity score, % at 18.7 µM;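 active means replicate mean at a twofold rise or more, about +100% in these data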;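 further: firefly luciferase made from a UUG start codon reports start codon fidelity; reporter light over untreated wells divided by growth signal over untreated wells; some hits fall short of that in this replicate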
# PABP polyA inh: PABP poly(A) RNA binding inhibitors, primary screen, biochemical, fluorescence polarization, uHTS; inhibition, % at 35 µM; 290,000 tested, 1% active; Polyadenylate-binding protein 1 (Homo sapiens), P11940;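 active means 50% or more with normal probe brightness, or confirmed in later tests; inconclusive means above 50% with abnormal brightness, or retests that disagree; inactive means below 50% or failed in later tests; about a fifth of its hits are not listed in these tables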;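 further: calls also rest on retests at 20 µM and on dose response follow-up; controls were probe without protein and protein plus probe with vehicle; some compounds called inactive have numbers as strong as hits; many hits fall short of the cut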
# HIV Env fusion: inhibitors of HIV-1 Env-driven cell-cell fusion, primary screen, HeLa-JRFL effector, CEM21 target cells, luciferase; inhibition, % at 12.3 µM; 360,000 tested, 1.1% active;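 active means mean replicate inhibition score of at least 50 and every replicate individually at or above 50; inconclusive means only one of the two criteria met; inactive means mean below 50 and not all replicates reaching 50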;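 further: 0% = plate neutral controls and 100% = maraviroc near 300 nM; one replicate is shown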
# CSC inhib: cancer stem cell viability inhibitors, primary screen, luminescence. cancer stem cell-like cells viability. inhibition, % at 7.5 µM. 300,000 tested, 1.1% active. AID 2717, 2010;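 active means mean at 75% or more and at least half the replicates too; inconclusive means mean and replicates disagree; tested in HMLE shEcad cells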;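 further: 0% = median of negative and 100% = median of positive control wells; the first replicate is given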
# Rce1 inh: yeast Rce1p protease inhibitors, primary screen, biochemical, fluorescence, cell-free homogeneous. AID 2563, 2010. calls only. yeast membranes, quenched prenylated peptide cleavage fluorescence. CAAX prenyl protease 2 (Saccharomyces cerevisiae (strain ATCC 204508 / S288c)), Q03530. 290,000 tested, 0.27% active;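 active means fall in fluorescence gain of 50% or more versus controls, with final raw signal at or below 3038400; inconclusive means same 50% fall but final raw signal above 3038400; inactive means fall in fluorescence gain under 50%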;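 further: plate controls were neutral control wells for no effect and wells lacking membranes for full effect; tested at 10 µM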
# Target sequence (Q03530 whole entry, looked up): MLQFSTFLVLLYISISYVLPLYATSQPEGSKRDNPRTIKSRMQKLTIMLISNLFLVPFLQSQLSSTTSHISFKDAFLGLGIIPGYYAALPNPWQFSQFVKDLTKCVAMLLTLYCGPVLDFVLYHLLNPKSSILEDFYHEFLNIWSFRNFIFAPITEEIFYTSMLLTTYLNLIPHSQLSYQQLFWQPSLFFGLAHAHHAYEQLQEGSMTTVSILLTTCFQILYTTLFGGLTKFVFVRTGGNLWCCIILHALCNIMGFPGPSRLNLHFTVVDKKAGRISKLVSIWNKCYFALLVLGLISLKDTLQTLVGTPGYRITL
# MT1-MMP act inh RFP: recorded beside MT1-MMP act inh, whose call it bears; RFP signal change, %; measured here: RFP expression control read;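 0 = vehicle wells; hits needed this value within 50% of zero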
# * marks the source's active call; other numbers are inactive results; i = inactive; u = inconclusive; x = no result given; & = joins results of further samples.
# Every second line gives: eIF4H FP inh	MT1-MMP act inh	MT1-MMP act inh RFP	UUG fidelity	PABP polyA inh	HIV Env fusion	CSC inhib	Rce1 inh
CC1=C2C3OC(=O)C(C)C3CCC2(C)C=C(Cl)C1=O (centres undefined)
 : x	1	0	-6	x	10	x	x
COc1ccc(N2CCC(N3CCN(C)C(CCO)C3)CC2)cc1 (centres undefined)
 : 7	-2	-1	-30	3	4	15	i
CCOC(=O)N1CCN(C(=O)COC(=O)c2cccc(S(C)(=O)=O)c2)CC1
 : x	5	6	1	x	8	x	x
COc1cc(OC)cc(C(=O)N[C@H](C(=O)OCC(=O)NC(=O)c2cccn2C)C(C)C)c1
 : 19	-6	0	x	-4	18	9	i
CCN(CC)S(=O)(=O)c1cccc(C(=O)OC2CC(C)OC2=O)c1 (centres undefined)
 : 2	0	2	-12	-1	-8	-5	i
Cc1c(Cc2ccc3c(c2)OCO3)sc(NC(=O)C2CC2)c1C(N)=O
 : 2	-4	-4	-2	2	6	-9	i
CC(=O)NC(c1ccccc1)c1nc(-c2cccc(C(C)C)c2)cs1 (centres undefined)
 : x	2	-1	5	x	13	x	x
COc1ccc(C(C)(O)c2nc(-c3ccc4ccccc4c3)cs2)cc1 (centres undefined)
 : x	-1	-6	-9	x	-3	x	x
CC(=O)Nc1ccc(S(=O)(=O)Oc2ccc(/C=C3\SC(N)=NC3=O)cc2)cc1
 : 14	-1	-2	x	-1	0	-31	i
COC(=O)c1ccccc1NC(=O)CN1CCN(C(=O)c2ccco2)CC1
 : 0	-4	-2	4	6	-94	5	i
CCN(CC)c1ccc(/C=C/C(=O)c2cccnc2)cc1
 : -5	x	x	-7	-1	-15	-5	x
O=C(COC(=O)/C=C/c1cccc(Cl)c1)NCCc1ccccc1
 : -7	-1	2	x	-4	14	-8	i
CCCOc1ccc(OC(=O)Cc2ccc(OC)c(S(=O)(=O)N3CCOCC3)c2)cc1
 : x	19	-1	x	x	3	40	i
O=C(CSc1nnc(NC(=O)C2CC(=O)N(c3ccccc3)C2)s1)NC1CCCC1 (centres undefined)
 : 8	2	6	-7	4	-11	-18	i
c1ccc(SSc2ccccc2)cc1
 : -4	-5	-1	0	-4	11	14	i
COC(=O)Cn1cnc2c(cnn2-c2ccccc2)c1=O
 : 4	3	5	x	1	-15	-2	i
Nc1cc2c(cc1O)CCCC2
 : 6	-6	7	-10	5	u	-3	i
COc1ccc(C/C(C)=N/NC(=O)c2ccc(C)cc2C)cc1
 : 2	5	1	539*	-3	-2	-2	i
CCCc1cc(=O)n2nc(N3CCC(C(=O)NCc4ccco4)CC3)sc2n1
 : -6	4	2	-14	-2	-5	5	i
CC1(c2ccccc2)NC(=O)N(CC(=O)N2CCN(S(=O)(=O)c3cccc([N+](=O)[O-])c3)CC2)C1=O (centres undefined)
 : x	-1	-8	x	x	x	-8	i
Cc1ccsc1/C=C(\CC(=O)O)c1nc2ccccc2o1
 : 0	-4	-1	-14	5	0	-14	i
Cc1ccc(C)c2[nH]c(=O)c(CCNC(=O)c3ccc(S(=O)(=O)N4CCOCC4)cc3)cc12
 : 0	0	-1	21	3	-1	-7	i
C[C@@H]1CN([C@H](C)CO)C(=O)CCCn2cc(nn2)CO[C@H]1CN(C)C(=O)c1ccc2ccn(C)c2c1
 : x	-2	5	19&-9	x	-78	x	x
COc1ccc(S(=O)(=O)N2CCN(C(=O)c3ccco3)CC2)cc1OC
 : -3	2	0	5	-3	-22	0	x
COc1ccccc1N1CCN(S(C)(=O)=O)CC1
 : 0	-2	-1	-21	-4	x	5	i
OCCC1CN(Cc2cccn2-c2nccs2)CCN1Cc1ccc(F)c(F)c1 (centres undefined)
 : 0	-3	-2	1	2	22	5	x
COc1ccccc1-c1cnc(C(O)c2cc(C)c(OC)c(C)c2)[nH]1 (centres undefined)
 : x	2	-6	-18	x	-17	x	x
CCOC(=O)c1oc2cccc(OC(C)=O)c2c1C
 : 7	-5	-3	-2	6	x	1	i
COc1ccccc1/C=C/C(=O)N1CCCC1
 : 2	3	3	x	-8	-5	-4	i
CSc1ccc(Cl)c(C(=O)Nc2ccc(OCC(N)=O)cc2)c1
 : -7	6	0	-11	-6	-21	6	i
Cc1[nH]n(-c2ccccc2)c(=O)c1C=Nc1cccc(F)c1
 : -4	1	-1	-11	1	-51	-1	i
O=C(C1CCC1)N1CCc2cc(S(=O)(=O)NCc3cccnc3)ccc21
 : -9	0	-9	-19	-17	x	x	i
Cc1cccc2c1-c1sc(C(=O)NCCCN3CCC(C)CC3)cc1CO2
 : 2	3	1	-15	-11	2	16	i
CC1CCCCC1NC(=O)Cn1c(=O)cnc2ccccc21 (centres undefined)
 : x	0	3	-6	x	19	0	x
CCCc1nn(C)c2c(=O)[nH]c(-c3cc(S(=O)(=O)Nc4ccc(NC(C)=O)cc4)ccc3OCC)nc12
 : -10	0	-4	-17	-4	-30	24	i
O=C1N(Cc2ccccc2)c2ccc(Cl)cc2C12OCCO2
 : -5	3	1	-1	12	10	-11	i
CC1=NNC(=O)C1CC(=O)N/N=C/c1ccc(C)o1 (centres undefined)
 : -4	0	2	-6	-7	-13	4	i
N#CCCn1cc(C(=O)CN2C(=O)NC3(CCc4ccccc43)C2=O)c2ccccc21 (centres undefined)
 : x	1	5	-1	x	27	x	x
COc1ccc(NS(=O)(=O)c2cc(NC(=O)CC3CCCC3)ccc2N2CCOCC2)cc1
 : -1	1	-4	-4	5	2	-7	i
Cc1cc(Cl)nc(Cl)c1C(=O)NCc1ccc(Cl)cc1
 : -7	4	2	-15	-11	-3	11	i
COc1ccc(S(=O)(=O)N(CC(=O)NCC2CCCO2)Cc2ccccc2)cc1 (centres undefined)
 : -4	-2	1	-18	-1	3	-4	i
CCOP(=O)(OCC)C(NC(=O)c1cc([N+](=O)[O-])cc([N+](=O)[O-])c1)C(F)(F)F (centres undefined)
 : 0	-1	6	x	-9	-8	x	i
NC1=NC(=O)/C(=C\C=C\c2ccccc2)S1
 : -5	1	2	x	-2	-212	-2	i
CCC1(CC)NC(=O)N(CC(=O)OC(C)C(=O)Nc2ccc(Cl)cn2)C1=O (centres undefined)
 : x	4	1	x	x	-6	-6	i
Cc1ccc(S(=O)c2ccc(NC(=O)C3CC3)cc2C#N)cc1 (centres undefined)
 : -15	0	-14	x	-1	18	-7	i
Cc1ccc(C)c(NC(=O)C(Sc2nc3ccc(C)cc3[nH]2)c2ccccc2)c1 (centres undefined)
 : -2	-31	-25	x	-6	2	17	x
CCN1CCN(c2cc(C)c3cc(NC(=O)Cc4ccc(OC)c(OC)c4)ccc3n2)CC1
 : -4	-2	-3	-11	-10	3	-7	i
COc1ccc2cc(CCNC(=O)c3cccs3)c(=O)[nH]c2c1
 : 8	-1	-8	-9	-8	-188	2	i
O=C(c1ccco1)N1CCN(C(=O)c2ccc(COc3ccc4c(c3)CCC4)o2)CC1
 : -8	6	-3	5	4	x	8	i
Cc1cc(C)c(Cc2c(C)nc3c(C(=O)NCc4ccco4)cnn3c2C)c(C)c1
 : 5	-17	-26	x	6	x	31	i
CC(=O)Nc1ccc(N2CCOCC2)c([N+](=O)[O-])c1
 : -3	1	1	x	-11	12	-4	i
Nc1nc(COc2ccc(F)cc2)nc(N2CCCCC2)n1
 : 1	10	5	x	10	-7	-5	i
CN1CCC(N(C)C(=O)/C=C/c2cn(-c3ccccc3)nc2-c2cccs2)CC1
 : 1	-2	-8	x	-4	13	42	i
COc1ccc(-c2cc(C)no2)cc1S(=O)(=O)Nc1cccc(CN2CCCC2)c1
 : 0	-16	-9	-23	6	2	-10	i
CCOc1ccc(CN2CCN(CC3=Cc4cccc(OC)c4OC3)CC2CCO)cc1 (centres undefined)
 : -1	4	-7	x	-10	21	3	i
COc1ccc(C(=O)NC(=S)NCc2cccnc2)cc1Br
 : 5	1	0	-29	16	6	8	i
CCOC(=O)N1CCN(CC(=O)N2c3ccccc3CC2C)CC1 (centres undefined)
 : 6	1	0	-12	38	-12	-11	i
N/C(=N\OC(=O)CCC1CCCC1)c1cccnc1
 : -4	1	9	x	-2	0	9	i
CC(=O)NC12CC3CC(C1)CC(C(=O)N1CCN(S(=O)(=O)c4cccc(F)c4)CC1)(C3)C2
 : -4	0	2	-18	-5	-6	2	i
CC(C)(C)S(=O)(=O)c1cnc(-c2ccccn2)nc1N
 : 0	2	1	x	-13	7	-12	i

# Continuation.
# Every second line gives: eIF4H FP inh	MT1-MMP act inh	MT1-MMP act inh RFP	UUG fidelity	PABP polyA inh	HIV Env fusion	CSC inhib	Rce1 inh
COc1ccc(NC(=O)NNC(=O)COc2ccc3cc(Br)ccc3c2)cc1
 : 7	4	1	-7	3	-25	-1	i
Cc1ccc(S(=O)(=O)NC(CC(C)C)C(=O)N2CCN(C/C=C/c3ccccc3)CC2)cc1 (centres undefined)
 : x	-6	-8	10	x	5	7	x
Cc1cc(C)nc(NNC(=O)c2ccccc2O)n1
 : 3	1	2	x	-9	-9	-4	i
Cc1ccccc1C(=O)NCC(c1ccco1)N1CCc2ccccc2C1 (centres undefined)
 : x	4	6	16	x	-19	-9	i
O=C(NC1CCCC1)C(c1ccccn1)N(C(=O)c1csnn1)c1ccccc1Br (centres undefined)
 : x	-3	-2	x	x	30	-12	i
Cc1cccc(C(C)n2nnc3ccccc32)c1O (centres undefined)
 : x	6	-2	-11	x	11	5	i
CC(=O)Cc1nsc(NC(=O)c2ccccc2)n1
 : -5	-1	1	-3	4	x	-7	i
CCN1CCN(Cc2oc(CO)cc(=O)c2O)CC1
 : 5	3	7	9	3	-25	-5	i
CCOC(=O)Cc1csc(NS(=O)(=O)c2ccc([N+](=O)[O-])cc2)n1
 : 8	0	3	-19	-8	0	4	i
CCOC(=O)c1ccccc1NC(=O)c1c(F)c(F)c(F)c(F)c1F
 : 4	-3	-7	-13	6	-59	0	i
COc1ccc(C2NC(=S)N3C(c4ccc(OC)cc4)NC(=S)N23)cc1 (centres undefined)
 : -13	-2	4	-16	33	x	-8	i
Cc1cc(N/C=C(\C#N)S(=O)(=O)c2ccc(Cl)cc2)nc(C)n1
 : 3	-3	-1	x	3	14	-14	i
CCCCCOC(=O)c1[nH]c2c(c1C)C(=O)C(C(=O)OC)C(C)C2 (centres undefined)
 : 7	-3	-20	-19	-10	x	12	i
CC(=O)c1ccc(N2CCN(CC(=O)Nc3ccc(N4CCOCC4)cc3)CC2)cc1
 : -1	x	x	x	-6	x	7	i
CCN(CC)CCC(c1ccc2c(c1)OCO2)c1c(O)cc(OC)cc1OC (centres undefined)
 : 2	-5	-2	11	-6	-119	-2	i
COc1ccc(Cc2c(C(C)(C)C)nc3ccc(Cl)cn23)c(C)c1
 : x	2	-7	-9	x	6	x	x

# Two entries picked at random from the list so far, as already listed:
# Every second line gives: eIF4H FP inh	MT1-MMP act inh	MT1-MMP act inh RFP	UUG fidelity	PABP polyA inh	HIV Env fusion	CSC inhib	Rce1 inh
O=C(NC1CCCC1)C(c1ccccn1)N(C(=O)c1csnn1)c1ccccc1Br (centres undefined)
 : x	-3	-2	x	x	30	-12	i
Cc1cc(N/C=C(\C#N)S(=O)(=O)c2ccc(Cl)cc2)nc(C)n1
 : 3	-3	-1	x	3	14	-14	i

# High-throughput results deposited in PubChem by several laboratories.
